Compound activity deposited in PubChem BioAssay by several laboratories.
VCAM-1 up = boosters of cytokine-driven VCAM-1 levels – cell-based, plate reader, pooled HUVEC, TNFa stimulus (AID 455). HUVEC TNFa-induced VCAM-1 immunofluorescence, plate reader; numbers were filed only for top-ranked candidate wells. augmentation, % at 5 µM. 0.2% of 10,000 active;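 active = a compound raising TNF-alpha-driven VCAM-1 surface staining, with its hit status upheld on visual or statistical review; inactive = the rest, including hits rejected on review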;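 note: 0% = TNFa with vehicle and 100% = strongest image-checked hit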
Proteasome disasm = blocks ATP-dependent breakdown of the yeast 26S proteasome. anti-FLAG beads, GFP-proteasome disassembly, flow cytometry. inhibition of disassembly, % (concentration not given with the values). 0.2% of 24,000 active. AID 751;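 active = above 40%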;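 note: plate controls were ATP control with full disassembly for no effect and ATP-gamma-S intact proteasomes for full effect; higher percent means more bead fluorescence retained so stronger block of disassembly; stock transfer was 100 nL into about 10 µL; wells with too few beads may also be inconclusive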
An asterisk follows results filed as active; i = inactive; . = no result given. Not all compounds are listed (hit frequency here may not be typical).

VCAM-1 up,Proteasome disasm,structure
i,11,COc1ccc(CCn2c(N)c(C#N)c3nc4ccccc4nc32)cc1OC
i,-0.2,Cc1ccc(NC(=O)CCN2CCc3ccccc3C2)cc1
.,-1.0,CCC(=O)N1CCc2cc(S(=O)(=O)CCC(=O)NCCc3ccc(OC)c(OC)c3)ccc21
i,-1.7,CCOC(=O)C(C)Sc1nc2c(cnn2-c2ccc(C)cc2)c(=O)[nH]1 (configuration not stated)
.,-1.1,CCn1cc(C(=O)Nc2ccccc2C(=O)OC)c(=O)c2ccc(C)nc21
.,-0.6,O=C(CC1CCCCC1)Nc1c2c(nn1-c1ccc(F)cc1)CS(=O)(=O)C2
.,-9.0,CCOCCCNC(=O)CCNC(=O)c1cc(OC)c(OC)c(OC)c1
.,-5.6,Cc1cc2c(c(SCC(=O)N(C)c3ccccc3)n1)C(=O)OC2
.,-0.9,COc1ccc(N(CC(=O)Nc2cc(C)ccc2OC)S(=O)(=O)c2c(C)noc2C)cc1
.,36,Cn1c(N)c(C(=O)NCc2ccccc2)sc1=S
.,0.0,Cc1oc(-c2cccc(Cl)c2)nc1CN1CCC(C(=O)NCCCN2CCCC2=O)CC1
.,0.5,CC(=O)N1CCc2cc(S(=O)(=O)NCCC(=O)N3CCN(c4ccccn4)CC3)ccc21
.,-1.4,CCOC(=O)COc1ccc2c(c1)C(=O)CC1(CCN(C(C)=O)CC1)O2
.,-0.2,CCCS(=O)(=O)N1CCC(C(=O)N2CCc3ccccc3C2)CC1
i,74*,O=C1CC(c2ccccc2)Cc2nc(N3CCc4ccccc43)ncc21 (configuration not stated)
i,-0.6,CN1CCCc2cc(C#N)c(=O)[nH]c21
.,0.0,COC(=O)c1cc2occc2n1CC(=O)Nc1ccc(OC)c(OC)c1
.,-1.3,CCCOc1ccc(N2CC(C(=O)Nc3ccccc3OC)CC2=O)cc1 (configuration not stated)
.,-2.5,COc1ccc(C2Nc3ccccc3C(=O)N2O)cc1OC (configuration not stated)
.,1.1,CC(C)CN(CCNC(=O)CC1Oc2ccccc2NC1=O)CC(C)C (configuration not stated)
i,1.9,Cc1ccccc1CN1CCN(CC(=O)NCc2ccccc2)C1=O
.,1.0,O=C(O)C1CCN(Cc2cnn(-c3ccccc3)c2-n2cccc2)CC1
.,-2.5,Cc1ccc(NC(=O)NCCN2C(=O)C3C4C=CC(C4)C3C2=O)cc1 (configuration not stated)
.,-0.3,CN(C)c1nc(N)nc(N(c2ccccc2)c2ccccc2)n1
i,2.4,Cc1ccccc1N1CC(c2nc3ccccc3[nH]2)CC1=O (configuration not stated)
.,1.1,O=C(Nc1cccc(F)c1)c1cccnc1N1CCOCC1
i,7.6,COc1cc(NC(=O)c2cccs2)cc(OC)c1
.,-2.5,CCCS(=O)(=O)N1CCCC(C(=O)NCC2CCCO2)C1 (configuration not stated)
.,0.8,Cc1ccc(C2(C(F)(F)F)NC(=O)N3CCN=C3S2)cc1 (configuration not stated)
i,3.1,Cc1csc2nc3ccccc3c(=O)n12
.,-0.1,CCN1C(=O)/C(=C2/Sc3ccccc3N2CCCS(=O)(=O)O)SC1=S
i,0.3,COc1ccc(N(C)C(=O)CCS(=O)(=O)c2cccc3nonc23)cc1
.,-0.3,CC1CCN(C(=O)C2CCC(CNS(=O)(=O)c3cccc4cccnc34)CC2)CC1 (configuration not stated)
.,-1.5,c1c2c(cc3sc(N4CCCCC4)nc13)OCO2
.,-1.8,O=C1c2ccccc2C(Nc2ccc(F)c(Cl)c2)N1c1ccccn1 (configuration not stated)
i,0.1,CCCn1c(=O)[nH]c(=O)c2[nH]cnc21
.,3.4,CCOC(=O)N1CCN(C(=O)C2CCCN(Cc3nc(-c4ccc(Cl)cc4)oc3C)C2)CC1 (configuration not stated)
i,0.7,CC(C)c1nnc(NC(=O)c2cnccn2)s1
100*,-0.6,COCCn1c(-c2ccc(OC)c(OC)c2)nc2ccccc21
.,0.3,Cc1nc2nc(C)c(CCC(=O)NCCCN3CCN(c4cccc(Cl)c4)CC3)c(C)n2n1
i,1.4,Cc1ccccc1NC(=O)C1CCC(C)(C(=O)O)C1(C)C (configuration not stated)
.,-1.5,CC(=O)Nc1nonc1NC(=O)CSC1=NCCS1
i,0.1,CN1CCN(c2nc3c(c(=O)[nH]c(=O)n3C)n2CCOc2ccccc2)CC1
.,-2.2,CCOc1ccc(NC(=O)CCn2cccc2)cc1
.,-3.2,COC(=O)CSc1nc(C)cc(Oc2ccccc2)n1
.,1.1,O=c1c2cc(N3CCOCC3)ccc2[nH]c(=S)n1Cc1ccccn1
i,-0.8,CCOC(=O)C(NC(=O)Nc1ccccc1)(OCC)C(F)(F)F (configuration not stated)
.,-1.2,Cn1c2ccccc2c2c(C(=O)NCc3ccco3)cn(C3CCCCC3)c(=O)c21
.,1.4,O=C(O)C1CCN(S(=O)(=O)c2cccnc2)CC1
i,-0.7,COC(=O)C1C2C=CC3(CN(CC4CCCO4)C(=O)C13)O2 (configuration not stated)

Compounds listed so far that contain a CF3 group (2):
VCAM-1 up,Proteasome disasm,structure
.,0.8,Cc1ccc(C2(C(F)(F)F)NC(=O)N3CCN=C3S2)cc1 (configuration not stated)
i,-0.8,CCOC(=O)C(NC(=O)Nc1ccccc1)(OCC)C(F)(F)F (configuration not stated)

(cont.)
VCAM-1 up,Proteasome disasm,structure
.,6.1,O=C(CC1Oc2ccccc2NC1=O)NCc1ccc(Cl)cc1 (configuration not stated)
.,4.4,Fc1cccc2sc(Nc3nnc(-c4ccccc4)o3)nc12
.,-1.2,O=C(O)c1cccnc1SCc1ccccc1
.,-0.5,Cc1ccc(C)c(S(=O)(=O)NC(CC(C)C)C(=O)O)c1 (configuration not stated)
.,1.3,CC(C)(C)NC(=O)c1sccc1C(=O)O
i,-1.1,Cn1c(=O)n(Cc2ccc(F)cc2)c(=O)c2c1nc1n2CCCN1Cc1ccccc1
i,-3.4,CCCS(=O)(=O)N1CCN(Cc2ccc(OCc3ccccc3)c(OC)c2)CC1
.,-0.6,O=C(Nc1ccccc1)N1CCCN(Cc2ccccc2F)C1
i,-1.9,COc1ccccc1N(CC(=O)NC1CCCC1)C(=O)CCC(=O)Nc1cc(C)on1
i,-0.7,CCSc1nc2ccccc2n1CCC(=O)O
.,-1.2,Cc1csc2ncc(C(=O)NCc3ccco3)c(=O)n12
.,-1.6,CCOC(=O)N1CCN(C(=O)C(C)(C)Oc2ccc(Cl)cc2)CC1
.,-1.1,COc1ccc(-c2csc(N3CCN(C(=O)c4ccco4)CC3)n2)cc1
.,-0.9,CN1C(=O)c2ccccc2C(C(=O)O)C1c1cccc(F)c1 (configuration not stated)
.,-1.3,O=C(NCCCN1CCCCC1)C1(S(=O)(=O)c2ccc(Cl)cc2)CC1
.,-0.1,COCCNC(=O)C1CC(=O)N(C2CCCCC2)C1 (configuration not stated)
i,0.0,COc1ccc(OC)c(N(CC(=O)N2CCN(c3cc(Cl)ccc3C)CC2)S(C)(=O)=O)c1
.,-0.7,O=c1cc(NCc2ccc3c(c2)OCO3)[nH]c(=O)n1-c1ccc(Cl)cc1
i,-0.9,CCOC(=O)CSc1nc2cc(C(=O)NCc3ccco3)ccc2c(=O)n1-c1ccc(F)cc1
.,-1.1,CCOc1ccccc1CNC(=O)C1CCC(=O)N1C(C)C (configuration not stated)
.,-1.9,CC(C)=CCc1c(C)nc2ccccc2c1C(=O)O
i,5.8,CCOC(=O)C(C(C)=O)c1nc(C)nc2c1nnn2Cc1ccccc1Cl (configuration not stated)
.,-0.1,COc1ccc(NC(=O)CN(C)S(=O)(=O)c2cccs2)cc1
i,-0.9,COCCn1nnnc1CN1CCC(Cc2ccccc2)CC1
.,0.1,CCOC(=O)N1CCC(Nc2c(N3CCN(c4cc(Cl)ccc4C)CC3)c(=O)c2=O)CC1
.,-1.0,CCc1cccc(NC2c3ccccc3C(=O)N2c2cccnc2)c1 (configuration not stated)
i,-3.8,O=C(CCC1COc2ccccc2O1)NCC1COc2ccccc2O1 (configuration not stated)
.,-3.4,CCOC(=O)N1CCN(C(=O)CSc2nnc(-c3ccc(C(C)(C)C)cc3)o2)CC1
i,0.5,COc1ccc(N2CCN(c3ncnc4c3cnn4-c3ccc(C)cc3C)CC2)cc1
.,-0.5,COc1ccc(-c2noc(CCC(=O)N3CCN(c4cc(C)ccc4C)CC3)n2)cc1
.,-2.2,O=C(CN1C(=O)C2C3C=CC(C3)C2C1=O)NCCc1ccccc1 (configuration not stated)
.,-0.4,CCC(C)(C)NC(=O)CC(c1ccc(OC)cc1)n1cccc1 (configuration not stated)
.,7.4,CCOC(=O)N1CCC(NC(=O)c2ccc3c(c2)sc2nc(-c4ccc(OC)cc4)cn23)CC1
.,-2.0,O=C(CCN1C(=O)c2ccccc2S1(=O)=O)N1CCN(c2ccccc2)CC1
.,-2.0,COc1ccc(C(=O)NCc2cn3c(C)csc3n2)cc1OC
.,1.5,CCOc1nc(Nc2ccc(-c3nc4ccccc4o3)cc2)nc(N2CCOCC2)n1
i,0.7,C=CCOC(=O)CC(NC(=O)c1ccccc1)c1ccccc1 (configuration not stated)
.,-0.7,CCOC(=O)c1oc2ccccc2c1NC(=O)c1cc(OC)cc(OC)c1
.,1.6,Cc1ccc2nc(N3CCOCC3)c3nncn3c2c1
.,-4.9,CCOC(=O)c1ccccc1NC(=O)c1cn(CC)c2nc(C)ccc2c1=O
.,0.1,CCN(CC)CCCNC(CC(=O)O)C(=O)O (configuration not stated)
.,-3.1,COCCN1C(=O)c2oc3ccccc3c(=O)c2C1c1ccc(O)c(OC)c1 (configuration not stated)
i,2.7,Cc1ccc(CNc2cc(-c3nn4c(C)nnc4s3)ccc2C)s1
.,0.5,COc1cc(C2C3=C(Nc4ncnn42)c2ccccc2CC3)cc(OC)c1OC (configuration not stated)
.,0.7,COc1ccc(C2C(C(N)=O)=C(C)Nc3nc(-c4ccccc4Cl)nn32)c(OC)c1 (configuration not stated)
i,0.6,Cn1c(SCC(=O)Nc2ccc(F)cc2)nnc1-c1cccnc1
i,-0.9,CCOC(=O)CSC1=C(C#N)C(=O)NC2(CCCCC2)S1
i,0.4,CCn1c(=N)n(CC(=O)c2ccco2)c2ccccc21
i,3.9,O=C1CCC(C(=O)N(Cc2ccco2)C2(C(=O)NC3CCCC3)CCCCC2)N1 (configuration not stated)
.,0.3,O=C(NC1CCCc2ccccc21)C1CCN(S(=O)(=O)c2cccc3nsnc23)CC1 (configuration not stated)

(listing goes on)
VCAM-1 up,Proteasome disasm,structure
i,1.4,Cc1nn(-c2ccccc2)c2c1C(O)n1c(nc3ccccc31)S2 (configuration not stated)
.,-0.6,CCOC(=O)N1CCC(NC(=O)c2ccc3c(=O)n4c(nc3c2)CCCC4)CC1
i,-0.9,COc1ccccc1NC1=NC(c2ccc(Cl)cc2)N=C(N)N1 (configuration not stated)
.,-2.8,CCOC(=O)C1CCCN(c2c(NCC3CCCN3CC)c(=O)c2=O)C1 (configuration not stated)
i,-0.2,CCC(=O)Nc1c2c(nn1-c1ccccc1C)CSC2
i,1.4,COC(=O)c1cc2oc(C)cc2n1CC(=O)Nc1ccc(C)c(C)c1
.,-1.8,O=C(Nc1ccc2c(c1)OCCO2)C1CCN(S(=O)(=O)c2cccc3nsnc23)CC1
.,-1.6,Cc1ccc(S(=O)(=O)N2CCN(C(=O)CSc3nnc(C)s3)C2)cc1
i,-2.2,CCCn1c(NCc2cc(C)ccc2O)nc2ccccc21
.,0.6,COc1ccc(-n2c(=O)cc(N3CCN(c4ccccc4)CC3)[nH]c2=O)cc1
.,1.6,COc1ccc2[nH]c3ccccc3c2c1
i,-1.7,COc1ccc(N2CCN(C(=O)CCNS(=O)(=O)c3ccc(Br)s3)CC2)cc1
.,-0.7,CC1(C)CC(=O)C2=C(C1)NC(=O)CC2c1cc(F)ccc1F (configuration not stated)
.,0.1,CCOC(=O)CCN(Cc1cccs1)S(=O)(=O)c1ccc(F)cc1
.,0.6,CCC1Sc2ccccc2N(CC(=O)NC2CCCC2)C1=O (configuration not stated)
i,-1.7,COc1ccc(C2C(C(C)=O)=C(C)N=c3s/c(=C/c4ccc5c(c4)OCO5)c(=O)n32)cc1 (configuration not stated)
i,0.1,Cc1cccc(N2C(=O)CC(N3CCN(C(=O)c4ccccc4)CC3)C2=O)c1 (configuration not stated)
i,-1.2,CCOC(=O)c1oc2ccccc2c1CSc1nnnn1-c1ccc(C)cc1
.,1.6,C=CCn1cc(C(=O)N2CCN(C)CC2)c(=O)c2cc(S(=O)(=O)N3CCCC3)ccc21
i,0.1,COc1ccc(OC)c(NC(=O)c2cn(C)c(=O)c3cc(OC)c(OC)cc23)c1

Of the compounds above, these have fluorine:
VCAM-1 up,Proteasome disasm,structure
.,-0.6,O=C(CC1CCCCC1)Nc1c2c(nn1-c1ccc(F)cc1)CS(=O)(=O)C2
.,1.1,O=C(Nc1cccc(F)c1)c1cccnc1N1CCOCC1
.,0.8,Cc1ccc(C2(C(F)(F)F)NC(=O)N3CCN=C3S2)cc1 (configuration not stated)
.,-1.8,O=C1c2ccccc2C(Nc2ccc(F)c(Cl)c2)N1c1ccccn1 (configuration not stated)
i,-0.8,CCOC(=O)C(NC(=O)Nc1ccccc1)(OCC)C(F)(F)F (configuration not stated)
.,4.4,Fc1cccc2sc(Nc3nnc(-c4ccccc4)o3)nc12
i,-1.1,Cn1c(=O)n(Cc2ccc(F)cc2)c(=O)c2c1nc1n2CCCN1Cc1ccccc1
.,-0.6,O=C(Nc1ccccc1)N1CCCN(Cc2ccccc2F)C1
.,-0.9,CN1C(=O)c2ccccc2C(C(=O)O)C1c1cccc(F)c1 (configuration not stated)
i,-0.9,CCOC(=O)CSc1nc2cc(C(=O)NCc3ccco3)ccc2c(=O)n1-c1ccc(F)cc1
i,0.6,Cn1c(SCC(=O)Nc2ccc(F)cc2)nnc1-c1cccnc1
.,-0.7,CC1(C)CC(=O)C2=C(C1)NC(=O)CC2c1cc(F)ccc1F (configuration not stated)
.,0.1,CCOC(=O)CCN(Cc1cccs1)S(=O)(=O)c1ccc(F)cc1
